Screening data from PubChem.
Cruzain noTriton = inhibitors of Trypanosoma cruzi cruzain without detergent | P25779 | purified cruzain, Z-FR-AMC fluorescence, no detergent | Potency, µM, for inactives: max response, negative = inhibition, actives largely listed as inhibitors | hit rate 2.3% among 200,000; active = well fitted curve in the direction sought with a large enough effect; inconclusive = small, poorly fitted or top-dose-only effect, or another doubt; inactive = no such curve, though single readings can be large; an effect the other way counts as inactive or inconclusive;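 also: plate controls were enzyme without inhibitor for no effect and buffer without enzyme for full effect; nearly all actives have a fitted effect of over 40% in size; top concentration of the series not given in the record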
Target sequence (P25779 123-467 limits assumed): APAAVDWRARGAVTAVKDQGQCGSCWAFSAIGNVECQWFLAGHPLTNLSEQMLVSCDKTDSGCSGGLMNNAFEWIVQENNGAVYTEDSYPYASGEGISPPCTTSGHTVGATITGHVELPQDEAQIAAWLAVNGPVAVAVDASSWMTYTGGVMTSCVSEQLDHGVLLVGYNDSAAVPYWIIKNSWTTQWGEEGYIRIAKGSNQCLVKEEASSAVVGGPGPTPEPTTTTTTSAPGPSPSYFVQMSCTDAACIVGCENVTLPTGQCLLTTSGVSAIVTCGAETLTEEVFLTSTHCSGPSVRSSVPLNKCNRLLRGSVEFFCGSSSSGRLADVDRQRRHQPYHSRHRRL
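Detergent-free condition (0.00005% Triton X-100) in acetate buffer pH 5.5 with DTT. 1.5 nM enzyme and compound were pre-mixed 15 min, then 2 uM Z-FR-AMC substrate added; reaction progress from fluorescence change between first and third reads (60 s).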
Marburg entry inh = Marburg virus entry inhibition | hit rate 1.8% among 300,000 | AID 540276 | Marburg virus pseudotyped entry inhibition, cell reporter; control for the full effect not named in the record; about a third of the inactives were read at about 46 µM | Potency, µM (titrated, usually from 37.8 µM), without a hit: top-dose activity change, negative = inhibition, most hits filed as inhibitors; active = well fitted inhibition curve with a large enough effect; inconclusive = small, poorly fitted or top-dose-only effect, or effect the other way; inactive = flat fitted curve, though single readings scatter; tested in HEK293 cells; about a fifth of its hits are not listed in these tables; also: % is scaled to controls: 0 for no effect and ±100 for the full control effect; luciferase read-out
NS1 function inh = influenza NS1 inhibition. hit rate 0.4% among 270,000. Potency, µM (top dose mostly 46.1 µM), for inactives: at the top dose activity, positive = more growth. S. cerevisiae slowed by influenza A NS1, growth recovery by OD600. AID 2326; also: actives are rising curves; nearly all actives have a fitted effect of over 50% in size
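In this qHTS, NS1 from influenza A is expressed in budding yeast, where it slows growth. Cells are switched from glucose to 2% galactose medium (pH 6.0, -URA), treated with compound, and growth recovery is read at OD600.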
Cruzain Triton = blocks cruzain activity in presence of Triton detergent. P25779. AID 1478. purified cruzain, Z-FR-AMC fluorescence, 0.01% Triton. hit rate 0.43% among 200,000. Potency, µM, inactives show max response, negative = inhibition, most hits filed as inhibitors; active = well fitted curve in the direction sought with a large enough effect; inconclusive = small, poorly fitted or top-dose-only effect, or another doubt; inactive = no such curve, though single readings can be large; an effect the other way counts as inactive or inconclusive;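 also: plate controls were neutral wells for no effect and buffer without enzyme for full effect; nearly all actives have a fitted effect of over 40% in size; top concentration of the series not given in the record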
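Z-FR-AMC hydrolysis (2 uM substrate) by cruzain (1.5 nM) monitored kinetically at ex 360/em 450 nm after 15 min room-temperature compound exposure; 0.01% Triton X-100, pH 5.5, 5 mM DTT.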
RE007 growth inh = less growth of the S. pombe RE007 Vpr strain; S. pombe RE007 Vpr strain, BacTiter-Glo ATP luminescence, 24 h; control for the full effect not named in the record; Potency, µM (doses to about 92.2 µM), inactives show at the highest dose activity change, negative = less growth; hit rate 0.21% among 360,000; AID 651644; active = well fitted falling curve with a large enough effect; inconclusive = small, poorly fitted or top-dose-only effect; inactive = no such curve, though single readings can be large or run the other way;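 also: % is scaled to controls: 0 for no effect and ±100 for the full control effect; nearly all actives have a fitted effect of over 50% in size; the assay follows cell death caused by Vpr and the record does not say whether a fall means rescue or toxicity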
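Fission yeast strain RE007, carrying one chromosomally integrated HIV-1 vpr copy, was seeded at OD 0.01 in PMG+AL medium with 23 nL pinned compound. After 24 h at 30 °C and 99% humidity, viability was read by BacTiter-Glo luminescence.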
Lassa entry inh = inhibitors of Lassa virus binding or cell entry | hit rate 1.2% among 300,000 | Potency, µM (titrated, usually from 37.9 µM), inactives show at the highest dose activity change, negative = inhibition, most hits filed as inhibitors | Lassa virus pseudotype entry inhibition, cell reporter; control for the full effect not named in the record; active means well fitted inhibition curve with a large enough effect; inconclusive means small, poorly fitted or top-dose-only effect, or effect the other way; inactive means flat fitted curve, though single readings scatter; tested in HEK293 cells; also: % is scaled to controls: 0 for no effect and ±100 for the full control effect; nearly all actives have a fitted effect of over 50% in size; luciferase read-out
2A StopGo = lowers the luciferase signal of an FMDV 2A StopGo reporter | human cells with a luciferase reporter of 2A StopGo recoding; control for the full effect not named in the record | Potency, µM (titrated, usually from 57.9 µM), for the others: at the top dose signal change, negative = less light | hit rate 1.2% among 410,000 | AID 1159524; active = well fitted falling curve with a large enough effect; inconclusive = small, poorly fitted or top-dose-only effect; inactive = no such curve, though single readings can be large or run the other way; tested in HEK293T cells; also: % is scaled to controls: 0 for no effect and ±100 for the full control effect; nearly all actives have a fitted effect of over 45% in size; luciferase light after 4 h
SARS PLpro yeast = SARS-CoV PLP inhibition in yeast; Potency, µM (titrated, usually from 32.9 µM), inactives show top-dose activity, positive = growth rescue; S. cerevisiae expressing SARS-CoV PLpro, growth rescue; control for the full effect not named in the record; AID 485353; hit rate 0.19% among 330,000; also: 0% is about no effect; nearly all actives have a fitted effect of over 55% in size; growth read by luminescence after 48 h
The depositor's hits bear a star; ? = inconclusive; · = no result given; [ ] = another dose, or the depositor's remark. Unless noted, calls follow the shape of the dose curve; as a rule, active means well fitted rising curve with a large enough effect; inconclusive means small, poorly fitted or top-dose-only effect; inactive means no such curve, though single readings can be large or run the other way. Potency is read from the fitted curve at half-maximal effect. Random draw from the library; any-hit rate near 4.7%.

molecule,Cruzain noTriton,Marburg entry inh,NS1 function inh,Cruzain Triton,RE007 growth inh,Lassa entry inh,2A StopGo,SARS PLpro yeast
CC1CC(C)CN(C(=O)C2CC(=O)N(c3ccc(F)cc3)C2)C1 (stereo not given),·,9%[46.1 µM],16%,·,2%,-16%[46.1 µM],9%,-3%
Cc1ccc(S(=O)(=O)N(CC(=O)NCC2CCCO2)c2cccc([N+](=O)[O-])c2)cc1 (stereo not given),·,·,-5%,·,-2%,·,8%,2%
COc1cc(CN2CCCCCC2)cc([N+](=O)[O-])c1O,·,·,-6%,·,-9%,·,-18%,-6%
Nc1c(C(=O)O)sc2nc(-c3ccccc3)cc(-c3ccccc3)c12,·,·,-2%,·,-14%,·,-14%,0%
CC12CCC(=O)N1C(C(=O)O)Cc1c2[nH]c2ccccc12 (stereo not given),0%,5%[46.1 µM],1%,7.0%,-13%,1%,1%,-1%
Cc1ccc(C2(C)NC(=O)N(CC(=O)Nc3cc(S(=O)(=O)N4CCOCC4)ccc3C)C2=O)cc1 (stereo not given),20%,-4%,-9%,-2.4%,13%,-17%,-25%,-14%
COc1ccc(C(=Cc2ccccc2)C(=O)O)cc1,·,13%[46.1 µM],·,·,0%,?,5%,·
O=C(NCc1ccco1)c1cc2cc3ccc(Cl)cc3nc2o1,?,?,3%,-22%,-12%,18µM*,9%,-4%
CCN(CC)c1ccc2cc(-c3nnc(-c4ccccc4)o3)c(=O)oc2c1,24%,?,4%,-11%,4%,8%,3%,3%
Cc1cc(C(=O)Nc2nc3c(C)cccc3s2)c(C)o1,?,-12%,12%,5.6%,-4%,10%,13%,-4%
CCN(CC)S(=O)(=O)c1cccc(C(=O)OCC(=O)c2ccc3c(c2)NC(=O)CO3)c1,0%,0%,-8%,-6.3%,-6%,-2%,·,-1%
COc1ccc(CN(C(=O)CSc2nnc(-c3ccc(F)cc3)o2)c2ccc(F)cc2)cc1,-9%,6%,-20%,-1.3%,-2%,?,-8%,-6%
COc1cc(OC)cc(C(=O)/C=C2\Sc3ccccc3N2C)c1,·,2%[46.1 µM],-14%,·,9%,15%[46.1 µM],18%,-1%
Cc1cc(C(=O)OCC(=O)N2CCCC2)c2ccccc2n1,-5%,3%,3%,1.9%,-4%,-5%,2%,18%
CCc1ccccc1NC1=NCC(=O)N1C1CCCC1,·,13%,7%,·,-2%,5%,-20%,0%
Cc1cc(Cl)c(OCCCCNC(C)(C)C)c(Br)c1,-5%,?,-15%,-1.4%,·,?,·,-12%
O=C(Nc1ccc(F)cc1)N1CCN(C/C=C/c2ccccc2)CC1,1%,?,-7%,2.2%,-10%,-9%,-27%,2%
COC(=O)C1CCN(C(=O)c2sc3nc(-c4ccccc4)cn3c2C)CC1,-3%,26%,-5%,4.8%,-13%[3.69 µM],15%,22%,-4%
Cc1ccc(OCCCCN2CCCCC2)c(Br)c1,-2%,?,-4%,-1.8%,3%,?,1%,-13%
N#Cc1ccccc1CSc1nnc(-c2ccc(Br)cc2)o1,-3%,?,·,0.5%,·,?,47%[activator],·
Cc1nc2ccccc2c2nc3ccccc3n12,-7%,-4%,-111%,-7.3%,?,9%,·,-12%
COc1cc(OC)cc(-c2nc3cc(C)ccc3o2)c1,?,?,-33%,-2.7%,?,?,30%,-10%
O=C(Cc1csc(N2CCOCC2)n1)N/N=C/c1ccccc1C(=O)O,·,·,1%,·,32%,·,4%,0%
Cc1cc(C)c(S(=O)(=O)N2CCN(S(=O)(=O)N3CCOCC3)CC2)c(C)c1,·,-29%[46.1 µM],-3%,·,17%,1%,-22%,0%
CC(C)(C)OC(=O)CNC(=O)c1[nH]cnc1C(=O)NCC(=O)OCc1ccccc1,·,·,-3%,·,-3%,·,?,-3%
COc1ccc(NC(=O)c2oc3ccccc3c2NC(=O)COc2ccc(C(C)C)cc2)c(OC)c1,-4%,9%[46.1 µM],·,-1.2%,·,3%[46.1 µM],8%,·
Cc1cccc(OCC(O)CN2CCN(c3ccccn3)CC2)c1C (stereo not given),·,·,-11%,·,-12%,·,-27%,9%
CC1CN(Cc2ccccc2)c2nc3c(c(=O)n(C)c(=O)n3C)n2C1 (stereo not given),-6%,4%,-1%,3.1%,12%,-18%,-13%,1%
Cc1cccc(C(=O)O)c1NC(=O)c1ccc(F)cc1,-24%,0%[46.1 µM],-2%,-2.3%,8%,-1%,?,-20%
COc1ccc(N=Nc2c(O)[nH]c(=S)[nH]c2=O)cc1,·,?,·,·,9%,·,19%,-4%

As entered above.
Value for N#Cc1ccccc1CSc1nnc(-c2ccc(Br)cc2)o1 under 2A StopGo: 47%[activator]
Value for COC(=O)C1CCN(C(=O)c2sc3nc(-c4ccccc4)cn3c2C)CC1 under Marburg entry inh: 26%

More results
molecule,Cruzain noTriton,Marburg entry inh,NS1 function inh,Cruzain Triton,RE007 growth inh,Lassa entry inh,2A StopGo,SARS PLpro yeast
CCOc1ccccc1N(C(=O)c1snc(C(N)=O)c1N)C(C(=O)NCc1ccccc1)c1ccc(O)cc1 (stereo not given),·,?,-28%,·,-1%,·,-21%,13%
Cc1cnc(NC(=O)C2CCCO2)s1 (stereo not given),-8%,8%,7%,2.7%,11%,1%,-12%,-5%
Cc1cccc(NC(=O)c2cc(-c3ccc(C)c(C)c3O)n[nH]2)c1,·,·,12%,·,0%,·,22%,-3%
CCOC(=O)C1CCN(C(=O)CCNC(=O)Cn2cnc3ccccc3c2=O)CC1,·,0%[46.1 µM],-4%,·,2%,15%,8%,2%
Cc1cc2c(ncn2Cc2ccccc2)c([N+](=O)[O-])c1C,-11%,?,-30%,-4.4%,-10%,-7%,-20%,-13%
Nc1ccc2c(c1)CCC2=O,·,2%,4%,·,-2%,3%,55%[activator],·
CC(C)COP(=O)(OCC(C)C)C(O)c1ccc(N(C)C)cc1 (stereo not given),·,-1%[46.1 µM],-6%,·,-12%,?,-5%,-1%
Cc1cc(C)n(Cc2cccc(C(=O)N/N=C/c3ccncc3)c2)n1,·,12%[46.1 µM],21%,·,0%,27%[46.1 µM],-10%,-5%
CC(C)c1ccc(/C=N/NC(=O)c2c(Cl)cnn2C)cc1,-5%,?,-32%,-3.0%,2%,?,0%,-21%
Cc1cc(C(=O)Nc2ccncc2)c(C)o1,·,-2%,·,·,-1%,14%,-13%,·
CC(C(=O)OCC(=O)c1ccc([N+](=O)[O-])cc1)N1C(=O)C2C3C=CC(C3)C2C1=O (stereo not given),·,17%,10%,·,3%,-12%,-5%,-4%
NCC(=O)NCC(=O)NC1(C(=O)O)CCCC1,·,3%,·,·,5%,-1%,-17%,·
CCCC(=O)Nc1nc2nc(C)cc(=O)n2[nH]1,-12%,7%,0%,-0.9%,9%,11%,17%,0%
Cc1ccc(NC(=S)NNC(C)(C)C)cc1,·,?,-40%,·,-23%,1%,34%[activator],-1%
Cc1ccc(OCC(=O)Nc2cccc3nsnc23)c(C)c1,-15%,22%,-5%,-0.4%,3%,0%,8%,-8%
COc1ccc(CNC(=O)CN(c2ccc(C)cc2)S(=O)(=O)c2c(C)n[nH]c2C)cc1,12%,?,·,0.0%,·,-22%[46.1 µM],12%,·
OC(CNCCC(c1ccccc1)c1ccccc1)COc1ccccc1 (stereo not given),·,?,-2%,·,-9%,?,-2%,2%
CCn1ccnc1CN(C)C(=O)c1ccc(OC2CCN(CCc3ccccc3)CC2)cc1,·,·,?,·,-12%,·,-7%,-7%
CCOC(=O)C1CCN(Cc2ccc(OC)c(OCc3ccccc3)c2)CC1,·,·,-4%,·,-26%,·,-30%,-3%
CC(Nc1nc(-c2cccc(Br)c2)cs1)c1nc2cc(Cl)c(N3CCCCC3)cc2n1CCOCCO (stereo not given),·,·,10µM*,·,6%,·,?,12%
O=C(COc1ccc(S(=O)(=O)N2CCOCC2)cc1Cl)NCCN1CCOCC1,·,17%[46.1 µM],9%,·,-1%,-16%,-7%,3%
O=C(Nc1cc(Cl)ccc1-n1cncn1)c1cccs1,·,-1%,·,·,-1%,-18%[46.1 µM],-14%,3%
Cc1cc(NC(=O)CSc2nnc(-c3c[nH]c4ccccc34)n2-c2ccc(F)cc2)no1,·,·,2%,·,-16%,·,-20%,0%
COC(=O)CCC(=O)Nc1ccc(S(=O)(=O)Nc2cc(OC)nc(OC)n2)cc1,·,·,-7%,·,-6%,·,-3%,-1%
Cc1noc(C)c1C(=O)N1CCCC(C(=O)c2ccc(Cl)cc2)C1 (stereo not given),·,1%[46.1 µM],1%,·,-1%,?,-13%,0%

Compound profiles, from the list above. Order of screens: Cruzain noTriton, Marburg entry inh, NS1 function inh, Cruzain Triton, RE007 growth inh, Lassa entry inh, 2A StopGo, SARS PLpro yeast
Profile of COC(=O)C1CCN(C(=O)c2sc3nc(-c4ccccc4)cn3c2C)CC1 = -3%, 26%, -5%, 4.8%, -13%[3.69 µM], 15%, 22%, -4%
Profile of COc1cc(CN2CCCCCC2)cc([N+](=O)[O-])c1O = ·, ·, -6%, ·, -9%, ·, -18%, -6%
